Screening results: PubChem BioAssay, several laboratories
Rce1 inh: inhibitors of yeast Ras-converting enzyme. Q03530. yeast membranes, quenched prenylated peptide cleavage fluorescence. calls only. hit rate 0.27% among 290,000;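 active means fall in fluorescence gain of 50% or more versus controls, with final raw signal at or below 3038400; inconclusive means same 50% fall but final raw signal above 3038400; inactive means fall in fluorescence gain under 50%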;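 further: plate controls were neutral control wells for no effect and wells lacking membranes for full effect; tested at 10 µM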
MT1-MMP act inh: blocks activation of human MT1-MMP; HT1080 RFP-PRO-GFP cells, GFP/RFP ratio fluorescence, overnight; percent of plate control window, DMSO zero; AID 651647; hit rate 0.061% among 360,000; GFP/RFP ratio change, % at 20 µM; P50281;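 active means GFP/RFP ratio change of at least 30% with cell ATP level not reduced by more than half and red fluorescence within 50% of control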; further: strong numbers were not always called active
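Compound: 20 µM single dose, 1% DMSO / System: HT1080 RFP-PRO-GFP cells / Controls: DMSO and RFP-L50D-GFP cell wells / Read-out basis: GFP/RFP fluorescence ratio / Schedule: overnight compound exposure at 37 °C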
eIF4H inh: inhibitors of RNA binding by human eIF4H | Q15056 | eIF4H fluorescence polarization binding assay | inhibition, % at 35 µM | hit rate 0.94% among 290,000;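 active means 50% or more with normal probe brightness, or confirmed in later tests; inconclusive means above 50% with abnormal brightness, or retests that disagree; inactive means below 50% or failed in later tests; about a fifth of its hits are not listed in these tables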;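 further: calls also rest on retests at 20 µM and on dose response follow-up; 0% = protein and probe with vehicle and 100% = probe without protein; strong numbers were not always called active; many hits fall short of the cut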
UUG fidelity: alters start codon recognition fidelity in yeast; S. cerevisiae UUG-firefly luciferase reporter, luminescence/redox ratio; activity score, % at 18.7 µM; hit rate 0.13% among 350,000; AID 602363;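 active means replicate mean at a twofold rise or more, about +100% in these data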;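 further: firefly luciferase made from a UUG start codon reports start codon fidelity; reporter light over untreated wells divided by growth signal over untreated wells; some hits fall short of that in this replicate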
Env fusion inh: inhibitors of HIV Env-mediated cell fusion; HeLa-JRFL Env/CEM21 cell fusion, luciferase; AID 651610; hit rate 1.1% among 360,000; inhibition, % at 12.3 µM;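 active means mean replicate inhibition score of at least 50 and every replicate individually at or above 50; inconclusive means only one of the two criteria met; inactive means mean below 50 and not all replicates reaching 50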;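 further: 0% = plate neutral controls and 100% = maraviroc near 300 nM; one replicate is shown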
CSC inhib: blocks cancer stem cells; cancer stem cell-like cells viability, luminescence; inhibition, % at 7.5 µM; AID 2717; hit rate 1.1% among 300,000;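 active means mean at 75% or more and at least half the replicates too; inconclusive means mean and replicates disagree; tested in HMLE shEcad cells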;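 further: 0% = median of negative and 100% = median of positive control wells; the first replicate is given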
PABP polyA inh: PABP-poly(A) binding inhibition; PABP-poly(A) RNA binding, fluorescence polarization; inhibition, % at 35 µM; hit rate 1% among 290,000; AID 2014;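 active means 50% or more with normal probe brightness, or confirmed in later tests; inconclusive means above 50% with abnormal brightness, or retests that disagree; inactive means below 50% or failed in later tests; about a fifth of its hits are not listed in these tables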;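 further: calls also rest on retests at 20 µM and on dose response follow-up; controls were probe without protein and protein plus probe with vehicle; some compounds called inactive have numbers as strong as hits; many hits fall short of the cut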
Target sequence (P11940 whole entry, looked up): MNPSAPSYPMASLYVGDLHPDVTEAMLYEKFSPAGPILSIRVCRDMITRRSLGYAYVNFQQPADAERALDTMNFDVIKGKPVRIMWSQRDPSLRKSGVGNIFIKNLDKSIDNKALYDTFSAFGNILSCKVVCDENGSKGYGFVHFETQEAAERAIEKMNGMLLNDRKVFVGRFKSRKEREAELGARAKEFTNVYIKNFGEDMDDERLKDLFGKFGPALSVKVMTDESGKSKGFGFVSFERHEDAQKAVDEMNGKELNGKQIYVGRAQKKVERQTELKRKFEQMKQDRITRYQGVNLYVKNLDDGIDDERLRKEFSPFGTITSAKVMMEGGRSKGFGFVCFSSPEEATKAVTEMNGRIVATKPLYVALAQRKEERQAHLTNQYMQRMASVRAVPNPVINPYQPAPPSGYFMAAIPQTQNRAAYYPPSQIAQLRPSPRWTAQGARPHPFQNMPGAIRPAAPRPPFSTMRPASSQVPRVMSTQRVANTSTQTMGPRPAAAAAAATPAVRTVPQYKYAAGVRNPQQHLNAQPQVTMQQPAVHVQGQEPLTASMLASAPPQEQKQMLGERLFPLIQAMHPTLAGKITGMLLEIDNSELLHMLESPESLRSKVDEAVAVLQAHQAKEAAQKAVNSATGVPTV
eIF4H inh retest: recorded beside eIF4H inh, whose call it bears; inhibition, %; compound at 20 µM; confirmation average;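 mean of two retest wells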
PABP polyA inh retest: recorded beside PABP polyA inh, whose call it bears; inhibition, %; compound at 20 µM; confirmation repeats;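 mean of two retest wells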
MT1-MMP act inh RFP: second read-out of MT1-MMP act inh, no call of its own (marks repeat the call); RFP signal change, %; measured here: RFP expression control read;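 0 = vehicle wells; hits needed this value within 50% of zero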
Numbers without * were called inactive; i = inactive; ? = inconclusive; / = not tested or not shown; & = joins results of further samples.

SMILES	Rce1 inh	MT1-MMP act inh	MT1-MMP act inh RFP	eIF4H inh	UUG fidelity	Env fusion inh	CSC inhib	PABP polyA inh	others
CCOC(=O)C1=C(COC(=O)CCOc2ccc(OC)cc2)NC(=O)NC1C (centres undefined)	/	-4	2	/	0	7	-7	/
CN(C(=O)c1ccc(NC(=O)Cc2cccc(NC(=O)C3CCN(C(=O)c4ccccc4)CC3)c2)cc1)C1CC1	/	0	1	/	-1	-12	/	/
O=C(c1ccc([N+](=O)[O-])o1)N1CCN(c2nc3c(Cl)cccc3s2)CC1	i	2	-8	/	/	-73	-6	/
Cn1c2ccccc2c2cc([N+](=O)[O-])ccc21	i	-3	0	-6	/	5	3	8
CC1(C)Cc2c(sc(NC(=O)C(C)(C)C)c2C#N)C(C)(C)N1	i	4	-1	-2	-15	/	-12	5
Cc1cc(C)cc(N(C(=O)c2nsc(Cl)c2Cl)C(C(=O)NC2CCCC2)c2ccc(O)cc2)c1 (centres undefined)	i	-42	-32	-10	/	/	7	-3
O=C(NCc1ccc(Cl)c(Cl)c1)c1cc(C2CCCCN2C(=O)c2ccccn2)on1 (centres undefined)	/	-4	3	/	-6	0	/	/
O=S(=O)(NC1CCCCC1N1CCCCC1)c1ccccc1 (centres undefined)	i	-3	-3	-8	-10	-5	-14	-5
O=C(CN(C(=O)c1ccc(Cl)cc1)N1C(=O)C2C3C=CC(C3)C2C1=O)c1cccs1 (centres undefined)	i	0	2	5	-11	-6	6	1
CCOC(=O)C1=C(C)NC(=O)CC1c1ccccc1OC (centres undefined)	i	3	4	0	/	-2	-2	-6
Cc1ccc(CSCCNC(=O)/C=C/c2ccccc2Cl)cc1	i	5	1	2	-22	13	7	4
CC1COC(Cn2c3ccccc3c3ccccc32)O1 (centres undefined)	i	-2	-1	-7	/	22	10	1
C/C(=N\NC(=O)COc1ccc(C)cc1Br)c1cc([N+](=O)[O-])cs1	i	6	-12	5	-5	25	-4	-13
COC(=O)[C@@H](NC(=O)c1ccccc1OC1CCN(S(C)(=O)=O)CC1)C(C)C	i	-2	2	-6	-4	-7	2	3
CCc1cc2c(SCC(=O)N3CCN(C(=O)c4cccs4)CC3)ncnc2s1	/	2	4	/	-5	18	/	/
O=C(CCS(=O)(=O)c1ccc(Cl)cc1)Nc1nc(-c2cccnc2)cs1	i	-6	-6	-18	-11	1	11	9
Cc1cc(NS(=O)(=O)c2ccc(NC(=O)/C=C/c3c(F)cccc3Cl)cc2)nc(C)n1	i	3	8	-15	-5	11	-5	5
COc1cc(/C=N/Nc2ccc(Cl)c(C(=O)O)c2)ccc1OCC(=O)N1C(C)CCCC1C (centres undefined)	i	-2	5	4	/	/	/	-6
CCn1cc(C(=O)NCc2ccccc2F)c(=O)c2ccc(C)nc21	i	0	0	-1	-23	/	-14	7
COc1ccc(NC(=S)NC(NC(=O)/C=C/c2ccccc2)C(Cl)(Cl)Cl)cc1 (centres undefined)	i	/	/	5	-25	-14	14	1

Taken from above (four entries):
SMILES	Rce1 inh	MT1-MMP act inh	MT1-MMP act inh RFP	eIF4H inh	UUG fidelity	Env fusion inh	CSC inhib	PABP polyA inh	others
CCOC(=O)C1=C(COC(=O)CCOc2ccc(OC)cc2)NC(=O)NC1C (centres undefined)	/	-4	2	/	0	7	-7	/
CN(C(=O)c1ccc(NC(=O)Cc2cccc(NC(=O)C3CCN(C(=O)c4ccccc4)CC3)c2)cc1)C1CC1	/	0	1	/	-1	-12	/	/
O=C(c1ccc([N+](=O)[O-])o1)N1CCN(c2nc3c(Cl)cccc3s2)CC1	i	2	-8	/	/	-73	-6	/
Cn1c2ccccc2c2cc([N+](=O)[O-])ccc21	i	-3	0	-6	/	5	3	8

Pulled one by one from the list above (3):
SMILES	Rce1 inh	MT1-MMP act inh	MT1-MMP act inh RFP	eIF4H inh	UUG fidelity	Env fusion inh	CSC inhib	PABP polyA inh	others
COC(=O)[C@@H](NC(=O)c1ccccc1OC1CCN(S(C)(=O)=O)CC1)C(C)C	i	-2	2	-6	-4	-7	2	3
O=C(CCS(=O)(=O)c1ccc(Cl)cc1)Nc1nc(-c2cccnc2)cs1	i	-6	-6	-18	-11	1	11	9
CCOC(=O)C1=C(C)NC(=O)CC1c1ccccc1OC (centres undefined)	i	3	4	0	/	-2	-2	-6

The results go on.
SMILES	Rce1 inh	MT1-MMP act inh	MT1-MMP act inh RFP	eIF4H inh	UUG fidelity	Env fusion inh	CSC inhib	PABP polyA inh	others
Cc1c(CC(=O)NCC(C)C)c(=O)oc2cc3c(cc12)CCC(C)(C)O3	i	3	-8	4	-3	-3	-11	5
O=C(CN1CCC(O)(c2ccc3c(c2)OCO3)CC1)N1CCOCC1	i	1	5	-5	-1	/	0	-6
Cc1ccc(C2CC(c3cccc(Br)c3)n3nc(N)nc3N2)cc1 (centres undefined)	i	0	-1	-7	-1	-12	-9	2
CCc1nc(CNC(=O)C2CCC(=O)N(Cc3cccc(OC)c3)C2)no1 (centres undefined)	i	-3	4	0	-40	-5	/	7
Cc1cc(C)nc(CCNC(=O)c2cc(COc3c(F)cccc3F)on2)n1	i	0	3	4	/	3	-13	-9
CCCCCC(=O)N1CCN(CCN=CC2=C(O)CC(c3ccc(OC)cc3)CC2=O)CC1 (centres undefined)	i	3&-2	0&3	9	-21&0	9	0	-1
O=C(O)CCCNC(=O)/C(=C\C=C\c1ccccc1)NC(=O)c1ccccc1Cl	i	1	4	99	/	-1	-8	49	eIF4H inh retest=-3;PABP polyA inh retest=5
CN(C)CCCN(C(=O)c1ccc(S(=O)(=O)N2CCCCCC2)cc1)c1nc2ccc(Br)cc2s1	i	2	2	5	9	-35	40	-20
COc1ccccc1N1N=C(C(=O)c2ccccc2)C2C(=O)N(c3ccc(Br)cc3)C(=O)C21 (centres undefined)	i	-27	3	?	2	5	-8	?
C#CCOc1ccc(/C=C2/C(=O)ON=C2C)cc1OCC	i	0	0	4	-28	-21	1	7
CN(C(=O)CSc1nc(-c2ccccc2)c(-c2ccccc2)o1)C1CCS(=O)(=O)C1 (centres undefined)	/	2	-2	?	-15	3	8	?
O=C(c1cccc(NC2=NC3CS(=O)(=O)CC3S2)c1)N1CCN(c2cccc(Cl)c2)CC1 (centres undefined)	i	-4	-2	-9	-30	/	-13	-2
CCn1c(SCc2ccc(F)cc2)nnc1-c1nn(-c2ccccc2)ccc1=O	i	0	1	12	-9	/	4	-2
COc1ccc(CSc2nc3ccccc3[nH]2)cc1	i	-6	-11	-11	-33	-146	23	-8
Cc1cc2cc(CN(CC3CCCO3)C(=S)Nc3ccccc3)c(=O)[nH]c2cc1C (centres undefined)	i	-18	-26	-1	/	/	3	-8
Cc1cccc(N(Cc2ccc(Cl)cc2)S(C)(=O)=O)c1	i	4	0	-4	-8	9	4	-7
COc1cc(OC)c(OC)cc1C=Cc1ccc2ccccc2n1	/	-9	-3	/	-33	?	/	/
O=C(CCS(=O)(=O)Cc1ccccc1F)NCc1ccccc1Cl	i	-1	0	-8	-21	3	2	2
Cn1c(NCCCO)nc2c1c(=O)n(Cc1ccccc1F)c(=O)n2C	/	4	2	-6	-2	21	-6	3
CCn1ccc(C(=O)Nc2ncc(C)s2)n1	i	5	5	-10	-37	-26	-7	-7
CN(Cc1ccccc1)Cc1nc2c([nH]1)c(=O)n(C)c(=O)n2C	i	-1	-2	6	13	-22	-3	-4
CC(C)(C)c1cc(C(=O)N/N=C/c2ccncc2)n[nH]1	i	-1	5	-3	-11	/	0	8
O=C1Nc2ccc(Cl)cc2C(C#CC2CC2)(C(F)(F)F)O1 (centres undefined)	i	1	-3	-6	-11	7	2	14
N#Cc1c(N)nc2c(c1N)CC(=O)N2c1ccccc1-c1ccccc1	i	-2	-3	3	-9	/	-8	3
Cc1nnc(-c2cccc(Br)c2)c2cn(-c3ccc(Br)cc3)nc12	i	-10	0	0	-9	-23	-4	-9
COc1ccc(NC(=O)c2cc(-c3ccc(OC)c(OC)c3)nc3ccccc23)c(OC)c1	i	4	-6	-11	-15	8	25	2
CCOC(=O)c1c(C)[nH]c(C2=NNC(=Nc3cccc(Cl)c3)SC2)c1C	i	/	/	2	/	/	-13	-4
COc1ccc(CCNC(=O)c2cc3cc(F)ccc3nc2C)cc1OC	i	2	-9	/	-1	5	/	/
c1ccc(Cn2c(-c3cccs3)nc3nc4ccccc4nc32)cc1	i	/	/	-1	/	-49	/	23
O=C(CN1CCN(S(=O)(=O)c2ccccc2)CC1)Nc1ccc([N+](=O)[O-])cc1	i	-1	-3	-4	/	8	24	5
S=C(NCc1ccccc1)N1CCN(C(=S)NCc2ccccc2)CC1	/	3	2	/	-11	-5	-10	/
CC(=O)c1ccc(N2CCN(C(=O)C3CCN(S(=O)(=O)Cc4ccccc4)CC3)CC2)cc1	i	6	-9	-11	-2	/	/	-10
COCc1c(C(=O)N/N=C(\C)c2ccncc2)nnn1-c1nonc1N	i	2	1	2	0	0	-11	-8
COCC(=O)N1C[C@H]2CON(C)[C@H]2C[C@H]1c1cccc(-c2ccc(C#N)cc2)c1	/	0	-2	/	-28	-11	/	/
CCCc1[nH]nc2c1C1(C(=O)N(C(C)C)c3ccccc31)C(C#N)=C(N)O2 (centres undefined)	i	0	0	-11	-7	/	/	16
Cc1cccc(CC(=O)N2CCOCC2)c1	i	1	4	2	-13	1	-1	10
CCN(CC)CCn1c2c(c(SCC(=O)Nc3ccc(C(C)C)cc3)nc1=O)CCCC2	i	2	3	/	-19	15	6	/
O=C(/C=C/c1ccccc1[N+](=O)[O-])NCCN1C(=O)S/C(=C\c2ccc(F)cc2)C1=O	i	4	0	-6	-10	0	-2	-7
COc1ccc(NC(=O)c2ccccc2OCc2ccc(F)cc2)c(OC)c1	i	-8	-13	5	-16	-1	28	2
COC(=O)c1ccccc1NC(=O)C1=CC(c2cccs2)=NS(=O)(=O)N1C	i	2	4	-12	-16	6	/	-6
S=c1[nH]nc(-c2ccc(Cl)cc2)n1CCCN1CCOCC1	i	2	0	-5	/	-15	-7	-9
CCCN(Cc1ccco1)S(=O)(=O)c1ccc(OC)c(OC)c1	i	3	2	4	/	2	-6	-4
